Source: PubChem (several laboratories)
MT1-MMP act inh = blocks activation of human MT1-MMP; P50281; HT1080 RFP-PRO-GFP cells, GFP/RFP ratio fluorescence, overnight; percent of plate control window, DMSO zero; GFP/RFP ratio change, % at 20 µM; 360,000 compounds, 0.061% hits;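 active = GFP/RFP ratio change of at least 30% with cell ATP level not reduced by more than half and red fluorescence within 50% of control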; note: strong numbers were not always called active
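Assay system: HT1080 RFP-PRO-GFP cells | Dosing: 20 µM single dose, 1% DMSO | Incubation: Cells overnight before dosing, compound overnight, 37 °C, 5% CO2 | Evaluation: GFP/RFP fluorescence ratio | Control set: DMSO-only wells and HT1080 RFP-L50D-GFP cell wells as references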
UUG fidelity = yeast start codon fidelity modulation. 350,000 compounds, 0.13% hits. activity score, % at 18.7 µM. S. cerevisiae UUG-firefly luciferase reporter, luminescence/redox ratio. AID 602363;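 active = replicate mean at a twofold rise or more, about +100% in these data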;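 note: firefly luciferase made from a UUG start codon reports start codon fidelity; reporter light over untreated wells divided by growth signal over untreated wells; some hits fall short of that in this replicate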
CSC inhib = blocks cancer stem cells | cancer stem cell-like cells viability, luminescence | 300,000 compounds, 1.1% hits | inhibition, % at 7.5 µM;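 active = mean at 75% or more and at least half the replicates too; tested in HMLE shEcad cells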;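 note: 0% = median of negative and 100% = median of positive control wells; the first replicate is given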
eIF4H inh = inhibitors of RNA binding by human eIF4H | Q15056 | inhibition, % at 35 µM | eIF4H fluorescence polarization binding assay | 290,000 compounds, 0.94% hits;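 active = 50% or more with normal probe brightness, or confirmed in later tests; about a fifth of its hits are not listed in these tables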;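 note: calls also rest on retests at 20 µM and on dose response follow-up; 0% = protein and probe with vehicle and 100% = probe without protein; strong numbers were not always called active; many hits fall short of the cut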
Rce1 inh = yeast Ras-converting enzyme inhibition; Q03530; yeast membranes, quenched prenylated peptide cleavage fluorescence; calls only; 290,000 compounds, 0.27% hits; AID 2563;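 active = fall in fluorescence gain of 50% or more versus controls, with final raw signal at or below 3038400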;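 note: plate controls were neutral control wells for no effect and wells lacking membranes for full effect; tested at 10 µM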
Target sequence (Q03530 whole entry, looked up): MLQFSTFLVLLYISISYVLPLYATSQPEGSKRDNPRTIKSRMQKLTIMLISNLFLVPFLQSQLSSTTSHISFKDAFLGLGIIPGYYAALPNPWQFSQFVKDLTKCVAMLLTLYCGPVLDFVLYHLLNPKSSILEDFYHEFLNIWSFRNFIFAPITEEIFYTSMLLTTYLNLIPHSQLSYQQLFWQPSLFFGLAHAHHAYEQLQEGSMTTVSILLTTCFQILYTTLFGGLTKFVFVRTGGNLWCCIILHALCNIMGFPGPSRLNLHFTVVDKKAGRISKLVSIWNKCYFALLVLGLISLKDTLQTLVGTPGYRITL
HIV Env fusion = inhibitors of HIV Env-mediated cell fusion | inhibition, % at 12.3 µM | HeLa-JRFL Env/CEM21 cell fusion, luciferase | 360,000 compounds, 1.1% hits;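 active = mean replicate inhibition score of at least 50 and every replicate individually at or above 50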;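 note: 0% = plate neutral controls and 100% = maraviroc near 300 nM; one replicate is shown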
PABP polyA inh = blocks human PABP binding to poly(A) RNA; fluorescence polarization; 290,000 compounds, 1% hits; AID 2014; P11940; inhibition, % at 35 µM;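 active = 50% or more with normal probe brightness, or confirmed in later tests; about a fifth of its hits are not listed in these tables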;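 note: calls also rest on retests at 20 µM and on dose response follow-up; controls were probe without protein and protein plus probe with vehicle; some compounds called inactive have numbers as strong as hits; many hits fall short of the cut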
MT1-MMP act inh RFP = also measured in MT1-MMP act inh; calls as there; RFP signal change, %; measured here: RFP expression control read;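 0 = vehicle wells; hits needed this value within 50% of zero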
Numbers without * were called inactive; i = inactive; . = no result given; & = joins results of further samples; ! = not active in a repeat.

SMILES	MT1-MMP act inh	MT1-MMP act inh RFP	UUG fidelity	CSC inhib	eIF4H inh	Rce1 inh	HIV Env fusion	PABP polyA inh
O=C(c1ccc(Cl)c(S(=O)(=O)N2CCCC2)c1)N1CCOCC1	-2	2	-4	-6	7	i	2	0
COC(=O)c1cccc(CN2C(=O)C(C)Sc3ccc(C(C)=O)cc32)c1 (stereo unspecified)	-4	-10	16	.	.	.	-10	.
Nn1c(SCC(=O)N2CCCC2)nnc1C1CCCCC1	4	2	-10	.	.	.	30	.
COC(=O)[C@@H](C)NC(=O)c1ccc2oc(CCc3ccccc3)nc2c1	1	1	-25	-13	-1	i	-38	1
COc1cc(C(=O)N=c2sccn2C)c([N+](=O)[O-])cc1OC	1	1	-8	.	-10	i	1	3
O=C(N/N=C/c1cccc([N+](=O)[O-])c1)c1ccc2c(c1)OCCO2	5	5	-17	3	3	i	-160	10
CCCCSc1nnc2nc(C)cc(C)n12	-4	-2	-9	-8	7	.	-105	6
COc1ccc(NC(=O)C2CCCN2c2nn3c(=O)cc(C)nc3s2)cc1 (stereo unspecified)	-1	5	-15	-3	-20	i	.	0
O=C(COC(=O)c1cc([N+](=O)[O-])ccc1NCCO)NCc1cccs1	1	-1	-20	.	1	i	-8	-14
COc1ccc(S(=O)(=O)N2CCN(c3ccc(C)cc3C)CC2)cc1OC	1	-9	-11	-5	-11	i	8	-12
CC1(OC(=O)CCc2ccccc2)C(=O)C=C2C=C(c3ccc(C#N)cc3)N(CCc3c[nH]c4ccccc34)C=C2C1=O (stereo unspecified)	6	4	-20	-9	-3	i	.	4
COC(=O)c1sc(S(=O)(=O)Nc2ccc(C)c(C)c2)c(C(=O)OC)c1C	1	-2	.	-2	-4	i	18	-11
COc1cc(OC)cc(C(=O)Nc2nc(CC(=O)NCCc3ccccc3)cs2)c1	3	-1	.	-6	.	i	-25	.
COc1ccc(CC(=O)Oc2cc(C)[nH]c(=O)c2[N+](=O)[O-])cc1	-2	3	-20	4	7	.	-12	-10
CSc1nnc(NC(=O)c2ccco2)s1	-1	0	-13	-8	-9	i	3	-12

Arranged by length of the SMILES (smallest number first): 5 of the compounds above.
SMILES	MT1-MMP act inh	MT1-MMP act inh RFP	UUG fidelity	CSC inhib	eIF4H inh	Rce1 inh	HIV Env fusion	PABP polyA inh
CCCCSc1nnc2nc(C)cc(C)n12	-4	-2	-9	-8	7	.	-105	6
Nn1c(SCC(=O)N2CCCC2)nnc1C1CCCCC1	4	2	-10	.	.	.	30	.
COc1ccc(NC(=O)C2CCCN2c2nn3c(=O)cc(C)nc3s2)cc1 (stereo unspecified)	-1	5	-15	-3	-20	i	.	0
COc1ccc(CC(=O)Oc2cc(C)[nH]c(=O)c2[N+](=O)[O-])cc1	-2	3	-20	4	7	.	-12	-10
COC(=O)c1sc(S(=O)(=O)Nc2ccc(C)c(C)c2)c(C(=O)OC)c1C	1	-2	.	-2	-4	i	18	-11

One compound at a time (already shown). Values in the order: MT1-MMP act inh	MT1-MMP act inh RFP	UUG fidelity	CSC inhib	eIF4H inh	Rce1 inh	HIV Env fusion	PABP polyA inh
Listed for `Nn1c(SCC(=O)N2CCCC2)nnc1C1CCCCC1` : 4	2	-10	.	.	.	30	.
Listed for `COc1cc(OC)cc(C(=O)Nc2nc(CC(=O)NCCc3ccccc3)cs2)c1` : 3	-1	.	-6	.	i	-25	.

Back to the main list, repeating the 2 entries before the break.
SMILES	MT1-MMP act inh	MT1-MMP act inh RFP	UUG fidelity	CSC inhib	eIF4H inh	Rce1 inh	HIV Env fusion	PABP polyA inh
COc1ccc(CC(=O)Oc2cc(C)[nH]c(=O)c2[N+](=O)[O-])cc1	-2	3	-20	4	7	.	-12	-10
CSc1nnc(NC(=O)c2ccco2)s1	-1	0	-13	-8	-9	i	3	-12
Cn1c(N)c(C(=O)CCl)c(=O)n(Cc2ccccc2)c1=O	1	0	-4	-7	-3	i	-11	12
Cc1cc(C)c(S(=O)(=O)N2CCCC(C(=O)N3CCCC3)C2)c(C)c1 (stereo unspecified)	0	2	-2	-7	-5	i	4	-16
C=C(C)c1cccc(C(C)(C)NC(=O)N2CCC(C)CC2)c1	-2	-4	.	-5	-1	i	.	9
Cc1ccc(S(=O)(=O)N2CC(O)CC2C(=O)OCC(=O)Nc2ccc([N+](=O)[O-])cc2C(F)(F)F)cc1C (stereo unspecified)	0	2	-5	5	.	.	8	.
CCOC(=O)N1CCN(C(=O)c2ccc3c(c2)NC(=O)C(N2CCOCC2)S3)CC1 (stereo unspecified)	1	3	18	-16	6	.	.	2
Cc1nc(Cl)c2c(n1)NC(=O)CO2	2	1	-13	-13	-2	i	0	9
O=S(=O)(NC(=NC1CCCCC1)c1ccccc1)c1ccccc1	4	3	-12	-2	5	i	8	4
CCN1CCN(Cc2ccc(NC(=O)c3cc(NC(=O)C(=O)c4c[nH]c5ccccc45)cc(OC)c3)cc2C(F)(F)F)CC1	3&8	0&-3	-1&4	-2	-35	i	-11	-27
C=C(C)c1nc(N)nc(N)n1	7	10	-6	-9	1	i	.	2
O=C(O)C(CCCCNS(=O)(=O)c1ccc(F)cc1)NS(=O)(=O)c1ccc(F)cc1 (stereo unspecified)	-4&-4	-2&-2	1&14	-13&-15	96*!	i	2&-6	71*!
COc1ccc(-n2c(C)ccc2C)c([N+](=O)[O-])c1	1	0	.	-3	-1	i	-10	-2
CCOC(=O)c1oc2c(CN3CCCCC3C)c(O)ccc2c(=O)c1-c1ccc(OC)c(OC)c1 (stereo unspecified)	5	9	-12	-1	-4	i	3	-2
O=C(COc1ncnc2ccc(Br)cc12)Nc1ccc(N2CCOCC2)cc1	2	11	.	7	-4	.	-10	-8
Cc1ccc(CNC(=O)C2c3ccccc3C(=O)N3CCc4ccccc4C23)o1 (stereo unspecified)	-9	2	.	-2	4	i	-25	-2
O=C(CCC(=O)N1CCOc2ccccc21)NCCCN1CCN(Cc2ccccc2)CC1	8	4	7	-13	5	i	15	1

Ordered by value in UUG fidelity (high to low): 6 from the list above
structure | MT1-MMP act inh | MT1-MMP act inh RFP | UUG fidelity | Rce1 inh | HIV Env fusion
CCOC(=O)N1CCN(C(=O)c2ccc3c(c2)NC(=O)C(N2CCOCC2)S3)CC1 (stereo unspecified) | 1 | 3 | 18 | . | .
O=C(CCC(=O)N1CCOc2ccccc21)NCCCN1CCN(Cc2ccccc2)CC1 | 8 | 4 | 7 | i | 15
Cc1cc(C)c(S(=O)(=O)N2CCCC(C(=O)N3CCCC3)C2)c(C)c1 (stereo unspecified) | 0 | 2 | -2 | i | 4
Cc1ccc(S(=O)(=O)N2CC(O)CC2C(=O)OCC(=O)Nc2ccc([N+](=O)[O-])cc2C(F)(F)F)cc1C (stereo unspecified) | 0 | 2 | -5 | . | 8
CCOC(=O)c1oc2c(CN3CCCCC3C)c(O)ccc2c(=O)c1-c1ccc(OC)c(OC)c1 (stereo unspecified) | 5 | 9 | -12 | i | 3
Cc1nc(Cl)c2c(n1)NC(=O)CO2 | 2 | 1 | -13 | i | 0

Following part
SMILES	MT1-MMP act inh	MT1-MMP act inh RFP	UUG fidelity	CSC inhib	eIF4H inh	Rce1 inh	HIV Env fusion	PABP polyA inh
O=C(NCc1ccc(F)cc1)C(c1ccncc1)N(C(=O)c1csnn1)C1CC1 (stereo unspecified)	1	3	-18	-2	-11	i	0	7
Cc1cccc(C(=O)NCCN(C)C)c1	-2	2	-15	.	-2	i	.	4
Cc1cccc[n+]1CC(=O)Nc1ccc([N+](=O)[O-])cc1Cl	4	1	-20	-11	2	i	-58	-5
NS(=O)(=O)c1cc(C(=O)Nc2ccc3c(c2)OCCCO3)ccc1Cl	-2	1	-7	8	2	i	-6	2
NC(=O)c1ccccc1N(Cc1ccccc1)S(=O)(=O)c1ccccc1	-1	0	.	.	4	i	-9	-4
O=C(NCc1ccncc1)C(=O)NCC1OCCN1S(=O)(=O)c1ccc(F)cc1 (stereo unspecified)	-5	-1	-15	5	-2	i	22	-2
COc1ccc(-c2nnn(CC(=O)NCCc3c[nH]c4ccccc34)n2)cc1OC	2	-1	-22	3	-5	i	-69	-2
COc1ccc(NC(=O)CS(=O)(=O)c2ccc(F)cc2)cc1	0	3	-14	.	-10	i	2	25
O=C(CCCCC(=O)NNC(=O)COc1ccccc1)NNC(=O)COc1ccccc1	3	1	-15	.	-4	i	-11	7
CCc1ccc(-c2cc(C(=O)N3N=C(C(F)F)CC3(O)C(F)F)c3ccccc3n2)cc1 (stereo unspecified)	3	-7	-20	89*	0	i	.	2
Cc1cc(C)n2nc(C(=O)OCC(=O)c3ccc(F)cc3)nc2n1	-2	8	.	-7	.	i	-18	.
COc1ccc(S(=O)(=O)n2nc(-c3ccc(Cl)cc3)cc2N)cc1OC	-1	-7	-4	-6	-8	i	5	6
CCNC(=S)NNC(=O)c1c(Cl)c(C)nn1C	-3	2	.	5	-5	i	-3	8
O=C1CCC(/C=C/c2ccccc2)=NN1Cc1ccccc1Cl	-2	-2	.	-6	-5	i	.	-5
COc1cc(/C=N/NC(=O)c2csc3c2CCCC3)cc(OC)c1O	9	13	.	-1	2	i	7	0
CCn1c(/C=C2\C(=O)N(C(C)C)c3ccccc32)nc2ccccc2c1=O	-2	1	-10	18	2	i	-85	7
CNc1nc2ccccc2n1N	5	4	.	9	-1	i	8	9
CCc1ccc(C(=O)NCc2ccc(Cl)cc2)cc1	5	1	.	-8	1	i	-43	-2
O=[N+]([O-])c1ccc2c(c1)Cc1cc(F)ccc1-2	0	4	-12	.	.	.	-1	.
Cc1ccc(N(CC(=O)N2CCOCC2)S(C)(=O)=O)cc1C	-2	1	-7	13	-4	i	-47	6
O=C(c1cccs1)N(c1ccc(Cl)cc1)C1C=CS(=O)(=O)C1 (stereo unspecified)	-1	-3	-5	-7	-11	i	5	16
COc1ccc(CNC(=O)CSc2nccn(-c3ccc(F)c(F)c3)c2=O)cc1	-4	1	-19	10	.	i	.	.
CC(C)=CCN1CCN(Cc2cccn2-c2ccccn2)CC1CCO (stereo unspecified)	0	5	-18	-9	4	i	-3	-4
Cc1cc(-c2ccccc2)nc(N2CCN(c3ccccn3)CC2)n1	-2	-2	-14	1	2	i	.	-2
CC(C)CCN(C(=O)CNC(=O)c1ccco1)C(C(=O)NC1CCCCC1)c1cccnc1 (stereo unspecified)	-1	1	22	-8	-10	i	3	-1
Cc1ccccc1CN1CCNC(=O)C1CC(=O)NCCC1=CCCCC1 (stereo unspecified)	0	4	18	-5	5	i	2	3
CCOC(=O)c1sc2nc3c(cc2c1N)COC(C)(C)C3	0	-3	-13	-13	6	.	-250	0
CCn1cc(C(=O)NC(=S)Nc2cccc(O)c2)cn1	3	-1	-19	-5	-1	i	.	-1
C#CCOC(=O)CN1C(=O)c2cccc3cccc(c23)C1=O	1	6	-9	-8	-4	i	-138	6
COc1ccc(Cl)cc1NC(=O)CN(C)C(=O)CSc1ccc2c(c1)OCCO2	4	-1	6	.	.	.	2	.
CC(=O)[C@@H]1[C@@H](C(=O)c2ccc(F)cc2)[C@]2(C(=O)Nc3ccccc32)[C@H]2C=Cc3cc(F)ccc3N12	-10	2	-7	-12	4	i	20	6
CN1/C(=C\C(=O)C(F)F)C(C)(C)c2ccccc21	6	4	-7	11	-2	i	.	4
O=C(NCCCN1CCCCC1)C1CCC(CNS(=O)(=O)c2cccc3nsnc23)CC1 (stereo unspecified)	0	-2	-10	.	-9	i	-4	1
